# Screening data from PubChem.
# Sfp PPTase inh: inhibitors of Bacillus subtilis Sfp phosphopantetheinyl transferase; AID 1490; Potency, µM, for inactives: max response, negative = inhibition, hits mostly inhibitors; Q9F4F7; Biochemical Sfp PPTase activity, qHTS; actives 3.5% (n = 310,000); active = well fitted inhibition curve with a large enough effect; inconclusive = small, poorly fitted or top-dose-only effect, or another doubt; inactive = no such curve, though single readings can be large or run the other way;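 note: the enzyme is Sfp with the accession as filed and its product quenches rhodamine fluorescence; potency is the fitted concentration of half-maximal effect; 0% = enzyme reaction without inhibitor and -100% = no enzyme wells; top concentration of the series not given in the record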
#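 With Hepes-Na pH 7.6 buffer containing 10 mM MgCl2, Sfp (15 nM) modified BHQ-2-YbbR (12.5 uM) using rhodamine-CoA (5 uM). Two reads 30 minutes apart at 525/598 nm yielded each well's rate.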
# ClpP mod: qHTS Assay for Activators of ClpP; Potency, µM (doses to about 57.5 µM), without a hit: top-dose activity change, negative = active; ATP-dependent Clp protease proteolytic subunit (Bacillus subtilis (strain 168)), P80244; actives 1.9% (n = 340,000); purified B. subtilis ClpP, FRET peptide cleavage, 20 min; active = well fitted falling curve with a large enough effect; inconclusive = small, poorly fitted or top-dose-only effect; inactive = no such curve, though single readings can be large or run the other way; note: potency is the fitted concentration of half-maximal effect; the source files actives as falling curves though it sought activators and does not explain the sign; nearly all actives have a fitted effect of over 65% in size; many hits overshoot -100%
# Target sequence (P80244 whole entry, looked up): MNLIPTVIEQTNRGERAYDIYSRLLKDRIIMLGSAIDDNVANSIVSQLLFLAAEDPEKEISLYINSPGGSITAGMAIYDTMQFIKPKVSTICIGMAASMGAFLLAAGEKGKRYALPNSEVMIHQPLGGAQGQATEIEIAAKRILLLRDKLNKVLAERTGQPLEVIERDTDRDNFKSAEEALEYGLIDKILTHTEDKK
#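 Purified B. subtilis ClpP, 10 microg/mL final in Tris/HCl pH8 with KCl, BSA, glycerol and Tween-20, cleaved an Abz/nitrotyrosine-quenched decapeptide. Fluorescence (ex 320, em 430) was read at 0 and 20 min at room temperature. Delta was normalized to 5.8 microM ADEP and DMSO/no-enzyme controls.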
# Menin MLL FP FL: menin-MLL binding inhibition, fluorescein peptide; FP activity change, % at 61.4 µM; Fluorescence polarization, fluorescein-MLL peptide displacement from menin; 290,000 tested, under 10 active; inconclusive = falling polarisation curve, or a change in total fluorescence; inactive = total fluorescence flat and polarisation flat or rising; no compound was filed as active; the % refers to the polarisation; negative = inhibition;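 note: % of control where 0% means no effect; inhibitors lower the polarisation; unlabelled MLL peptide was the positive control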
# PINK1 modulator: PINK1 expression modulation; PINK1 immunofluorescence, high-content cytometry, 24 h; Potency, µM (highest dose often 76.6 µM), for the others: top-dose activation (PINK1 increase), actives largely listed as activators; actives 0.2% (n = 410,000); AID 624263; active = well fitted activation curve with a large enough effect; inconclusive = small, poorly fitted or top-dose-only effect; inactive = flat fitted curve, though single readings scatter; cell line not stated here;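 note: potency is the fitted concentration of half-maximal effect; % of control where 0% means no effect; nearly all actives have a fitted effect of over 65% in size; a mitochondrial uncoupler was the plate control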
#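 Cells are seeded, rested 12 hours, then given compound at five concentrations or DMSO for 24 hours. After fixation, blocking and antibody staining, PINK1 amount and mitochondrial localization are scored; CCCP serves as control.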
# TRPML1 agonist: human mucolipin-1 channel agonism. Q9GZU1. TRPML1-expressing cells, Ca2+ dye fluorescence, FDSS; host cell line not named in the record; reference of the full effect not given here. activation, % (concentration not given with the values). actives 0.12% (n = 410,000). AID 624414; in the data active = activation above about 50%; inconclusive = about 30% to 50%; inactive = below about 30%; note: 0% is about no effect; the text of the record puts the active cut at 80%
# Target sequence (Q9GZU1 whole entry, looked up): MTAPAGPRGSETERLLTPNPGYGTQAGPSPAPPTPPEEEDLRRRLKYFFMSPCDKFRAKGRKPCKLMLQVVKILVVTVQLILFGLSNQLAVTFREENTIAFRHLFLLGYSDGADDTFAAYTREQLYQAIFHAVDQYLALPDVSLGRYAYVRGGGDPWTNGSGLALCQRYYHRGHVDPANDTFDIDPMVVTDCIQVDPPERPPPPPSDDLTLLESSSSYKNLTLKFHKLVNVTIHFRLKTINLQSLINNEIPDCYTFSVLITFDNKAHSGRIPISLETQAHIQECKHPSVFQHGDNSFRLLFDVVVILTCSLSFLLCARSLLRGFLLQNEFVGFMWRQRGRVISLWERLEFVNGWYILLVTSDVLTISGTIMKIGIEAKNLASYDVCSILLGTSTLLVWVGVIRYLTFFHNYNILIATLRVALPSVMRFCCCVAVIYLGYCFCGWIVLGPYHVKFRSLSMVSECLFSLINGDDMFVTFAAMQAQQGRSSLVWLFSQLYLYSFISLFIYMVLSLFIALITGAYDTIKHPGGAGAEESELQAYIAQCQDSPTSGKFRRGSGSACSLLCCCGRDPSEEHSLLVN
#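 Kinetic FDSS Ca2+ read in Tet-induced TRPML1-DL cells (ABD Ca8 dye plus quencher, 45-90 min RT loading): baseline, then compound, then 110 s agonist window; EC80 agonist 54-4 at 4uM final added afterwards for a 110 s antagonist window.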
# TRPV1 potentiator: potentiators of human vanilloid receptor 1 (TRPV1); actives 0.02% (n = 320,000); AID 540277; Q8NER1; potentiation, % at 8.33 µM; TRPV1-expressing cells, Fluo-8 calcium influx, capsaicin EC20 potentiation; host cell line not named in the record; control for the full effect not named in the record; active means potentiation above 80%; inconclusive means 30% to 80%; inactive means below 30%; note: 0% is about no effect
#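 Fluo-8 calcium influx in TRPV1-expressing cells, kinetic read (ex 480/em 520 nm). Compound added and read 3 min for agonist activity, followed by capsaicin at EC20 final and 2 min further read for enhancement.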
# TRPML1 inh: blocks the human TRPML1 channel | Q9GZU1 | TRPML1-inducible cells, Ca2+ dye fluorescence, FDSS; active compounds read low; inhibition of EC80 agonist-evoked calcium signal | activity change, negative = inhibition, % (concentration not given with the values) | actives 0.02% (n = 390,000) | AID 624415; in the data active means activity change below about -50%; inconclusive means about -30% to -50%; inactive means above about -30%;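 note: stimulus is agonist 54-4 at its EC80 concentration; % is set by controls: 0 for no effect and ±100 for the full control effect; the text of the record puts the active cut at -80%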
#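 Calcium fluorescence in TRPML1-DL cells induced overnight with Tet: a 110 s read after compound pin addition, then a 110 s antagonist read after challenge with 54-4 at 4 uM final (EC80).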
# The depositor's hits bear a star; ? = inconclusive; . = no result given; & = joins results of further samples; [ ] = another dose, or the depositor's remark.
SMILES,Sfp PPTase inh,ClpP mod,Menin MLL FP FL,PINK1 modulator,TRPML1 agonist,TRPV1 potentiator,TRPML1 inh
O=C(O)CCC(=O)N1CCN(c2ccccn2)CC1,23%,25µM*,0.7,-2.6%,1.1,7,-1
CC(C)c1nnc(NC(=O)CCC(=O)NCc2ccc3c(c2)OCO3)s1,11%,0.6%,0.3,1.5%,5.0,5,30
Cc1ccc(S(=O)(=O)N2CCN(c3nc(-c4ncco4)nc4ccccc34)CC2)cc1,.,-1.2%,.,-0.4%,-0.7,.,.
O=C(CN1C(=O)COc2ccc(S(=O)(=O)N3CCOCC3)cc21)N1CCN(c2ccccc2)CC1,.,-0.8%,.,0.9%,2.7,.,-16
CC(C(=O)NC1CCCCC1)N(Cc1ccccc1)C(=O)c1snc(C(N)=O)c1N (stereo not given),25%,-1.0%,1.9,0.8%,-1.4,-2,6
Cc1c(NC(=O)c2ccc(COc3ccc4ccccc4c3)o2)c(=O)n(-c2ccccc2)n1C,-10%,-1.6%,2.1,-0.9%,-0.8,-1,-8
Cc1ccc[n+](CC(=O)Nc2ccc(N(C)C)cc2)c1,-7%,0.3%,1.3,1.5%,-0.3,1,10
O=C1c2ccccc2S(=O)(=O)c2cc(C(=O)N3CCC(N4CCCC4)CC3)ccc21,.,1.9%,.,1.8%,-0.3,.,2
Cc1[nH]nc2c1C1(CCOC1C)C(C#N)=C(N)O2 (stereo not given),12%,-1.1%,0.6,.,1.1,5,21
COc1ccc(NC(=O)CSc2nc3ccc(OC)cc3[nH]2)cc1,-2%,-0.7%,2.1,-0.5%,.,0,.
FC(F)(F)c1ccccc1CN1CCN(C2CCCCCC2)CC1,-60%,-0.1%,8.6,8.2%,0.6,-8,-7
CCOc1ccc(OCC)c(NC(=O)C2CCCN(S(=O)(=O)c3cc(Br)cc4c3N(C(=O)CC)CC4)C2)c1 (stereo not given),.,-0.2%,.,-0.3%,-0.4,.,-9
CCOc1cccc(-c2nn3c(-c4cc(C)[nH]n4)nnc3s2)c1,1%,-14%&-1.6%,5.2,1.8%&5.2%,1.8&-0.9,4,25
COc1ccccc1NC(=O)Cn1nnc(-c2ccccc2NC(=O)c2ccco2)n1,-13%,32%,0.4,4.8%,-1.3,11,2
CSc1ccc(CCNC(=O)CCc2c(C)nc3c(-c4ccccc4)c(C)nn3c2C)cc1,.,6.7%,.,5.9%,0.4,.,6
CCOc1cc(C(=O)Nc2ccc(S(=O)(=O)Nc3cc(C)on3)cc2)cc(OCC)c1OCC,-18%,-0.4%,0.8,.,0.5,12,2
Cn1c(=O)c2c(nc(CN3CCN(c4ccccc4)CC3)n2CCCc2ccccc2)n(C)c1=O,.,19%,.,1.3%,-1.2,.,30
Cc1ccc(NC(=O)Cn2ncn3c(cc4ccccc43)c2=O)cc1C,.,?,.,-0.5%,1.3,.,-10
CCc1ccc(CN(C)C(=O)C2=CC=CN3CCS(=O)(=O)N=C23)cc1,.,.,.,-1.8%,-0.3,3,0
COCCNC(=O)CSc1ccc(C)cc1,16%,0.2%,1.1,0.5%,-0.7,15,7
O=C(CN(C(=O)CCC(=O)Nc1nccs1)c1cccc(F)c1)NCc1ccccc1,-7%,.,0.9,15%,-0.4,?,30
CCNC(=O)n1nccc1C(C)Oc1ccc(Cl)cc1 (stereo not given),20%,1.4%,3.4,2.9%,-0.1,-5,13
CCCNC(=O)Cc1ccsc1,11%,-1.6%,2.1,-5.7%[38.3 µM],-0.5,-3,-12
CC(C)NC(=O)c1ccc(CSCc2ccccc2Cl)o1,8%,.,-5.6,0.8%,1.4,-17,-11
Cc1ccc2[nH]c3c(=O)n(CC(=O)N(C)Cc4ccccc4)ncc3c2c1,.,4.2%,.,8.4%,2.0,.,-8

# Reprinted at random: two compounds from above.
SMILES,Sfp PPTase inh,ClpP mod,Menin MLL FP FL,PINK1 modulator,TRPML1 agonist,TRPV1 potentiator,TRPML1 inh
Cn1c(=O)c2c(nc(CN3CCN(c4ccccc4)CC3)n2CCCc2ccccc2)n(C)c1=O,.,19%,.,1.3%,-1.2,.,30
Cc1ccc(NC(=O)Cn2ncn3c(cc4ccccc43)c2=O)cc1C,.,?,.,-0.5%,1.3,.,-10

# (cont.)
SMILES,Sfp PPTase inh,ClpP mod,Menin MLL FP FL,PINK1 modulator,TRPML1 agonist,TRPV1 potentiator,TRPML1 inh
CC(=O)c1cccc(NC(=O)CCc2nc3sc4c(c3c(=O)[nH]2)CCCC4)c1,.,1.5%,.,?,0.8,-8,5
C=CCn1c(SCc2cc(C(=O)OC)c(C)o2)nnc1-c1ccncc1,?,0.9%,5.6,-1.1%,0.6,-3,13
N#C/C(=C/c1ccc(-c2cc(C(=O)O)cc(C(=O)O)c2)o1)c1nc2ccccc2s1,56µM*,.,?,.,.,17,.
CCCC(=O)Nc1c2c(nn1-c1ccc(F)cc1)CS(=O)(=O)C2,9%,.,3.5,-2.5%,-0.7,18,-7
O=C(CC1N=C2c3ccccc3N=C(SCc3cccc(Cl)c3)N2C1=O)NCc1ccc2c(c1)OCO2 (stereo not given),.,-22%,.,1.0%,3.3,.,-19
CCc1ccc(NC(=O)c2cc(C)no2)cc1,2%,0.9%,0.8,4.7%,-1.5,-1,37
CCn1c(CC(=O)Nc2ccccc2F)nnc1SCC(=O)NC1=NCCS1,.,1.0%,.,0.8%,-0.6,.,-5
C[C@@H](C(=O)OCC(=O)c1ccc(F)c(F)c1)N1C(=O)C2CCCCC2C1=O (stereo not given in full),.,-0.6%,.,-1.4%,0.1,.,3
Fc1ccc(NC(=S)N2CCN(c3ccccn3)CC2)cc1Cl,.,.,.,-1.5%,0.9,.,-26
CCc1nnc(NC(=O)/C=C/c2ccc(C)o2)s1,2%,-20%,-0.9,2.7%,1.8,5,12
Cc1c(-c2n[nH]c(=S)n2-c2ccc(Br)cc2)nnn1-c1ccc(Cl)cc1,-14%,.,0.6,-0.5%,0.2,2,-12
CC(=O)c1ccc(C(=O)Nc2ccc3c(c2)C(=O)NC3=O)cc1,-8%,-19%,1.0,0.0%,-0.6,?,-10
Nc1cccc(-c2nnc3n2CCCCC3)c1,-1%,-26%,-1.8,0.9%,-0.7,-7,7
CCOc1ccc(NC(=O)CN2CCN(CC(=O)Nc3ccc(N(C)C)cc3)CC2)cc1,1%,0.0%,0.5,-1.3%,1.5,0,7
CCn1c(SCc2nc3cc(OC)c(OC)cc3c(=O)[nH]2)nnc1-c1ccncc1,11%,-2.6%,-0.5,-1.4%[38.3 µM],0.7,19,-11
Cc1cc2oc(C(=O)Nc3ccc(S(=O)(=O)Nc4nccs4)cc3)cc(=O)c2cc1Cl,-15%,-1.3%,-0.4,1.3%,-0.1,9,21
CC(C)n1c2ccccc2c2nnc(SCC(=O)OCN3C(=O)c4ccccc4C3=O)nc21,2%,5.3%,0.3,.,1.2,-11,1
COc1ccccc1C(=O)NCCSCc1c(F)cccc1Cl,9%,-4.8%,2.2,0.5%,.,-10,.
NC(=O)C1CCN(C(=O)c2ccc(CS(=O)(=O)c3c(Cl)cccc3Cl)o2)CC1,24%,-1.0%,-0.8,0.2%,0.0,.,10
COC(=O)C1(C(F)(F)F)N=C(N(C)C)OC(N(C)C)=N1,18%,0.2%,2.2,-0.9%,1.0,-2,2
COCCN(C(=O)COC(=O)c1cc2c(s1)CCCC2)c1c(N)n(Cc2ccccc2)c(=O)[nH]c1=O,.,-3.5%,.,0.3%,0.0,-4,-23
CC(=O)NC1=NN(C(C)=O)C(c2cccc([N+](=O)[O-])c2)S1 (stereo not given),-2%,-1.4%,13,-0.3%,1.1,-21,4
O=C1c2ccccc2C(=O)N1CCC(c1ccccc1)c1ccco1 (stereo not given),-24%,-2.3%,1.3,0.4%,3.8,-9,-15
FC(F)(F)c1ccccc1/C=N/N1CCN(Cc2ccccc2)CC1,-18%,-0.1%,5.4,?,1.4,-7,4
CCCOC(=O)C(C)Sc1n[nH]c(=O)[nH]c1=O (stereo not given),16%,-1.0%,-1.6,-0.5%,2.0,5,-26

# Entries of single compounds, quoted from the list. Values in the order: Sfp PPTase inh | ClpP mod | Menin MLL FP FL | PINK1 modulator | TRPML1 agonist | TRPV1 potentiator | TRPML1 inh
# Record of CCNC(=O)n1nccc1C(C)Oc1ccc(Cl)cc1 (stereo not given) : 20% | 1.4% | 3.4 | 2.9% | -0.1 | -5 | 13
# Record of FC(F)(F)c1ccccc1CN1CCN(C2CCCCCC2)CC1 : -60% | -0.1% | 8.6 | 8.2% | 0.6 | -8 | -7
# Record of CCc1ccc(NC(=O)c2cc(C)no2)cc1 : 2% | 0.9% | 0.8 | 4.7% | -1.5 | -1 | 37

# (list continues)
SMILES,Sfp PPTase inh,ClpP mod,Menin MLL FP FL,PINK1 modulator,TRPML1 agonist,TRPV1 potentiator,TRPML1 inh
CC1CC(C)(C)CC2(C1)NC(=O)N(CC(=O)Nc1nccs1)C2=O (stereo not given),.,-1.1%,.,0.1%,-0.1,-2,22
CN(C)C1=C2C=CC=CC2/C(=C2/C=Cc3ccccc32)C=C1 (stereo not given),.,2.1%,.,11%,-0.5,.,.
CCOC(=O)C1CCCN(CC(O)COc2ccc(OC)cc2C(C)(C)C)C1 (stereo not given),-12%,-2.6%,1.2,6.1%,0.5,-11,8
NS(=O)(=O)c1cccc(NC(=O)COC(=O)CCC2CCCC2)c1,.,-2.7%,.,0.0%,0.4,.,-4
COc1ccccc1C(=O)C1CCCN(C(=O)CCn2cnnn2)C1 (stereo not given),22%,-0.6%,1.5,-1.7%,0.2,16,25
CCN(CC)C(=O)Oc1cc2c(-c3cc4cccc(OC)c4o3)cc(=O)oc2cc1C,5%,-18%,.,2.9%,-1.1,5,6
O=C(NP(=O)(N1CCOCC1)N1CCOCC1)C1=C(N2CCOCC2)/C(=C\c2ccccc2)CC1,0%,.,-1.4,0.5%,0.0,-18,-8
COc1ccc(CC(=O)Nc2cc(S(=O)(=O)N3CCOCC3)ccc2N2CCOCC2)cc1OC,.,-0.2%,.,0.1%,0.3,.,8
O=C(COc1ccc(-n2cnnn2)cc1)Nc1ccc(F)c(F)c1,.,1.2%,.,0.7%,-0.5,.,4
CCOC(=O)c1c(C)oc2nc(C)nc(N(C)Cc3ccccc3)c12,.,-3.5%,.,-0.9%,3.3,.,51
CCn1c(=O)cc(OCC(=O)NCCCN2CCN(c3cccc(Cl)c3)CC2)c2ccccc21,-4%,0.1%,5.6,0.8%,-0.7,6,15
